Screening data: PubChem, Broad Institute
AF4-AF9 inh – inhibitors of AF4 peptide binding to AF9, primary screen, biochemical, AlphaScreen, biotin-AF4 peptide, FLAG-AF9, single point | Protein AF-9 (Homo sapiens), P42568 | actives 0.47% (n = 350,000) | inhibition, % at 10 µM;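 active = every replicate reaching a set inhibition limit, whatever the replicate mean, cut at about 25% in these data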;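 also: 0% = plate neutral control median and 100% = total signal loss; the record names both 10 and 1 µM as test concentration; the first replicate is given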
Target sequence (P42568 whole entry, looked up): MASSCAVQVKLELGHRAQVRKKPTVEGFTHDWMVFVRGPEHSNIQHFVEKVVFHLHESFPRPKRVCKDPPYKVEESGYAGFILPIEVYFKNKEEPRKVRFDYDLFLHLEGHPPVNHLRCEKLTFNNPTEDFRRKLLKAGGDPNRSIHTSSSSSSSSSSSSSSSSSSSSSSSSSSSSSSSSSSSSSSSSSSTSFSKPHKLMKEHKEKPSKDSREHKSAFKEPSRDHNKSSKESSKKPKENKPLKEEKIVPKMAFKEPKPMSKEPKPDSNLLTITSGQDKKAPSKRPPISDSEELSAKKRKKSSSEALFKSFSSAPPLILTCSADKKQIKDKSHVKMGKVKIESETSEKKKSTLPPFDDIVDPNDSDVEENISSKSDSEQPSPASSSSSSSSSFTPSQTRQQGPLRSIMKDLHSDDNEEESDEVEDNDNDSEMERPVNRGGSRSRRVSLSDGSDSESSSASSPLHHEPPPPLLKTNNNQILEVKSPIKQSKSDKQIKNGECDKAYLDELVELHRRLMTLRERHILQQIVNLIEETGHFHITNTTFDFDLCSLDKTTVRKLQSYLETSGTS
FGF22 binding – binders of human FGF22 protein, primary screen, FGF22 synaptogenesis inhibitor project, biophysical, thermal shift, single point. Fibroblast growth factor 22 (Homo sapiens), Q9HCT0. recombinant FGF22 thermal shift, SYPRO orange fluorescence; percent of sucrose octasulfate shift, DMSO zero. calls only at 9.99 µM. actives 1.5% (n = 340,000). AID 651658, 2012;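 active = melting point raised past a set limit in the mean and every replicate; three in four hits are not shown here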
Target sequence (Q9HCT0 whole entry, looked up): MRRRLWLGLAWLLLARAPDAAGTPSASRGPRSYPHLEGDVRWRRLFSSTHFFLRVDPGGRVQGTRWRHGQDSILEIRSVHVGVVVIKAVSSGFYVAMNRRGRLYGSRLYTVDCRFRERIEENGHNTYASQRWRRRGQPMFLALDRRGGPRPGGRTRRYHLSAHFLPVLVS
Active calls of the source: *; & = joins results of further samples. Not all compounds are listed; the hit share may differ from the screen's.

Screening C[C@@H]1CN([C@H](C)CO)C(=O)Cc2cc(NC(=O)Nc3ccc(F)cc3)ccc2O[C@H]1CN(C)Cc1ccc(C(=O)O)cc1 returned AF4-AF9 inh -13 and FGF22 binding inactive.
For COc1cccc(NC(=O)N(C)C[C@H]2Oc3ncc(C#Cc4ccc(F)cc4)cc3C(=O)N([C@H](C)CO)C[C@@H]2C)c1 the results were AF4-AF9 inh -0.8 and FGF22 binding inactive.
Screening CCC(=O)Nc1ccc2c(c1)C(=O)N(C)[C@H]1CC[C@H](CC(=O)NCc3ccc(OC)cc3)O[C@H]1CO2 returned AF4-AF9 inh 0.0 and FGF22 binding inactive.
For C[C@@H]1CN([C@@H](C)CO)C(=O)c2cc(NS(=O)(=O)c3cn(C)cn3)ccc2O[C@H]1CN(C)S(C)(=O)=O the results were AF4-AF9 inh -0.6 and FGF22 binding inactive.
For O=C(C[C@H]1CC[C@@H]2[C@H](COC[C@H](O)CN2Cc2ccccc2)O1)NCCCN1CCOCC1 the results were AF4-AF9 inh -2.2 and FGF22 binding inactive.
`CS(=O)(=O)Nc1ccc2c(c1)[C@@H]1C[C@@H](CC(=O)NCC(F)(F)F)O[C@H](CO)[C@@H]1O2` gave AF4-AF9 inh -11 and FGF22 binding inactive.
Screening CC(C)NC(=O)N(C)C[C@@H]1Oc2c(NC(=O)C3CCCCC3)cccc2C(=O)N([C@@H](C)CO)C[C@H]1C returned AF4-AF9 inh -4.0 and FGF22 binding inactive.
`O=C(Nc1ccc(C(F)(F)F)cc1)Nc1ccc2c(c1)[C@@H]1C[C@H](CC(=O)N3CCc4ccccc4C3)O[C@H](CO)[C@@H]1O2` gave AF4-AF9 inh -12 and FGF22 binding inactive.
Screening O=C(C1CC1)N1CCCCN2[C@H](CO)[C@H](c3ccc(C#CC4(O)CCCC4)cc3)[C@H]2C1 returned AF4-AF9 inh -2.8 and FGF22 binding inactive.
O=C(C[C@@H]1CC[C@H]2[C@@H](COC[C@H](O)CN2C(=O)Nc2ccc(Cl)c(Cl)c2)O1)NCc1ccncc1 was read as AF4-AF9 inh 11 and FGF22 binding inactive.
Screening O=C(c1ccncc1)N1C[C@@H]2[C@H](c3ccccc31)[C@@H](CO)N2C(=O)CN1CCOCC1 returned AF4-AF9 inh 3.5 and FGF22 binding inactive.
Screening CO[C@H]1CN(C)C(=O)c2cc(NS(=O)(=O)c3cn(C)cn3)ccc2OC[C@H](C)NC[C@@H]1C returned AF4-AF9 inh -2.7 and FGF22 binding inactive.
Screening COc1cc(CO)cc(I)c1O[C@H]1C=C(C(=O)NCCO)C[C@@H](N(CC2CCCCC2)C(=O)c2ccc(C(F)(F)F)cc2)[C@@H]1O returned AF4-AF9 inh -2.6 and FGF22 binding inactive.
`COc1ccc2c3c(n(C)c2c1)[C@H](CO)N(C(=O)NC(C)C)CC31CCN(C(=O)NC(C)C)CC1` gave AF4-AF9 inh 0.7 and FGF22 binding inactive.
Screening O=C(C[C@H]1C=C[C@@H](NS(=O)(=O)c2ccccc2F)[C@@H](CO)O1)NCCCN1CCOCC1 returned AF4-AF9 inh 0.3 and FGF22 binding inactive.
CC=Cc1ccc2n(c1=O)C[C@H]1[C@H](CO)[C@@H](C(=O)NCCC)N(C(=O)C3CCOCC3)[C@@H]21 (mixture of isomers) was read as AF4-AF9 inh 0.2 and FGF22 binding inactive.
Cc1ccc(S(=O)(=O)N(C)C[C@@H]2Oc3c(NC(=O)c4cc(C)nn4C)cccc3C(=O)N([C@@H](C)CO)C[C@@H]2C)cc1 was read as AF4-AF9 inh -13 and FGF22 binding inactive.
`Cc1ccc(S(=O)(=O)Nc2ccc3c(c2)C(=O)N([C@@H](C)CO)C[C@H](C)[C@H](CN(C)C(=O)NC(C)C)O3)cc1` gave AF4-AF9 inh -4.3 and FGF22 binding inactive.
`C[C@@H]1CCCCO[C@H](CN(C)S(=O)(=O)c2ccc(Cl)cc2)[C@H](C)CN([C@H](C)CO)C(=O)c2cc(NC(=O)NC3CCCCC3)ccc2O1` gave AF4-AF9 inh 2.0 and FGF22 binding inactive.
`COc1ccc(S(=O)(=O)N(C)C[C@H]2OCCCC[C@@H](C)Oc3ccc(NS(=O)(=O)c4c(C)noc4C)cc3C(=O)N([C@H](C)CO)C[C@@H]2C)cc1` gave AF4-AF9 inh -0.7 and FGF22 binding inactive.
`C[C@H]1CN([C@@H](C)CO)C(=O)c2cc(C#Cc3ccc(F)cc3)cnc2O[C@H]1CN(C)C(=O)c1ccccc1F` gave AF4-AF9 inh 0.1 and FGF22 binding inactive.
For C[C@H](CO)N1C[C@H](C)[C@H](CN(C)C(=O)Nc2ccc3c(c2)OCO3)Oc2ccc(N(C)C)cc2C1=O the results were AF4-AF9 inh 3.6 and FGF22 binding inactive.
For CO[C@H]1CN(C)C(=O)c2ccc(NC(=O)Cc3ccccc3)cc2OC[C@H](C)N(CC2CC2)C[C@H]1C the results were AF4-AF9 inh -0.2 and FGF22 binding inactive.
C[C@@H]1CN([C@H](C)CO)C(=O)Cc2cc(NC(=O)C3CC3)ccc2O[C@H]1CN(C)C(=O)NC1CCCCC1 was read as AF4-AF9 inh -3.0 and FGF22 binding inactive.
For C/C=C/c1ccc([C@@H]2[C@@H](CNC(=O)CC)N(Cc3ccccn3)[C@H]2CO)cc1 the results were AF4-AF9 inh -1.2 and FGF22 binding inactive.
Screening COc1ccc(S(=O)(=O)Nc2ccc3c(c2)CC(=O)N([C@@H](C)CO)C[C@H](C)[C@H](CN(C)C(=O)Nc2cccc4ccccc24)O3)cc1 returned AF4-AF9 inh 0.6 and FGF22 binding inactive.
`O=C(C[C@H]1C[C@@H]2c3cc(NC(=O)C4CCC4)ccc3O[C@@H]2[C@H](CO)O1)NCc1cccnc1` gave AF4-AF9 inh -14 and FGF22 binding inactive.
CC(=O)N1CC2(C1)[C@@H](c1ccc(-c3ccc(C#N)cc3)cc1)[C@@H](CO)N2CCC(F)(F)F was read as AF4-AF9 inh -0.3 and FGF22 binding inactive.
For CO[C@H]1O[C@H](CO)[C@@H](OC(=O)Nc2ccccc2-c2ccccc2)[C@H](OC(=O)Nc2ccccc2)[C@H]1OC(=O)Nc1ccccc1 the results were AF4-AF9 inh 16 and FGF22 binding inactive.
Screening CO[C@@H]1CN(C)C(=O)c2ccc(NC(=O)c3ccccc3F)cc2OC[C@@H](C)N(CC2CC2)C[C@@H]1C returned AF4-AF9 inh -3.7 and FGF22 binding inactive.
`Nc1nc2c(C(=O)N3CCCC3)nnn2c2ccccc12` gave AF4-AF9 inh -12 and FGF22 binding inactive.
For N#C[C@H]1[C@@H](c2ccc(-c3ccccc3F)cc2)[C@H](CO)N1C(=O)C1CCC1 the results were AF4-AF9 inh -1.8 and FGF22 binding inactive.
Screening Cc1noc(C)c1S(=O)(=O)Nc1ccc2c(c1)C(=O)N([C@@H](C)CO)C[C@@H](C)[C@@H](CN(C)CC1CCCCC1)OCCCC[C@H](C)O2 returned AF4-AF9 inh -4.3 and FGF22 binding inactive.
`C/C=C/[C@@H](CC(=O)N1Cc2ccccc2C[C@H]1CO)[Si](C)(C)c1ccc(OC)cc1` gave AF4-AF9 inh -0.4 and FGF22 binding inactive.
Screening CNC[C@@H]1OCCCC[C@@H](C)Oc2ccc(NC(=O)Nc3c(C)noc3C)cc2C(=O)N([C@H](C)CO)C[C@@H]1C returned AF4-AF9 inh -3.1 and FGF22 binding inactive.
`COc1ccc2c3c(n(C)c2c1)[C@@H](CO)N(C(=O)Nc1ccc(F)cc1)CC31CCN(C(=O)CN2CCOCC2)CC1` gave AF4-AF9 inh -1.6 and FGF22 binding inactive.
CN1C(=O)[C@@]2(C3=C(CCCC3=O)OC3=C2C(=O)OC2(CCCCC2)C3)c2ccccc21 was read as AF4-AF9 inh -1.6 and FGF22 binding inactive.
For COC(=O)[C@@]1(Cc2ccccc2)N=C(c2ccc(OCCCO)cc2)O[C@H]1c1ccccc1 the results were AF4-AF9 inh 10.0 and FGF22 binding inactive.
CN1C(=O)c2cc(NC(=O)c3cnccn3)ccc2OC[C@@H]2O[C@@H](CC(=O)N[C@H]3CCN(Cc4ccccc4)C3)CC[C@H]21 was read as AF4-AF9 inh 5.7 and FGF22 binding inactive.
O=C(C[C@@H]1CC[C@@H](NC(=O)Cc2ccccn2)[C@H](CO)O1)NCCc1ccccc1 was read as AF4-AF9 inh -1.4 and FGF22 binding inactive.
For C[C@H](CO)N1C[C@H](C)[C@H](CN(C)C(=O)Nc2cccc3ccccc23)OCCCC[C@H](C)Oc2ccc(NC(=O)Nc3ccc4c(c3)OCO4)cc2C1=O the results were AF4-AF9 inh 0.9 and FGF22 binding inactive.
`CN(C)CC(=O)N1[C@H](C#N)[C@@H](c2ccc(-c3cccc(C(=O)N(C)C)c3)cc2)[C@H]1CO` gave AF4-AF9 inh 0.2 and FGF22 binding inactive.
Screening COc1ccc2c3c(n(C)c2c1)[C@@H](CO)N(C(=O)NC1CCCC1)CC31CCN(C)CC1 returned AF4-AF9 inh 6.7 and FGF22 binding inactive.
Screening OC[C@H]1[C@H](c2ccc(-c3ccccc3)cc2)[C@H]2CN(Cc3cncnc3)CCCCN21 returned AF4-AF9 inh -1.3 and FGF22 binding inactive.
Screening COc1ccc(S(=O)(=O)Nc2ccc3c(c2)C(=O)N([C@@H](C)CO)C[C@H](C)[C@@H](CN(C)Cc2ccc(C(=O)Nc4ccccc4N)cc2)O3)cc1 returned AF4-AF9 inh -9.3 and FGF22 binding inactive.

Next section, overlapping the part above by seven compounds.
CN1C(=O)c2cc(NC(=O)c3cnccn3)ccc2OC[C@@H]2O[C@@H](CC(=O)N[C@H]3CCN(Cc4ccccc4)C3)CC[C@H]21 was read as AF4-AF9 inh 5.7 and FGF22 binding inactive.
O=C(C[C@@H]1CC[C@@H](NC(=O)Cc2ccccn2)[C@H](CO)O1)NCCc1ccccc1 was read as AF4-AF9 inh -1.4 and FGF22 binding inactive.
For C[C@H](CO)N1C[C@H](C)[C@H](CN(C)C(=O)Nc2cccc3ccccc23)OCCCC[C@H](C)Oc2ccc(NC(=O)Nc3ccc4c(c3)OCO4)cc2C1=O the results were AF4-AF9 inh 0.9 and FGF22 binding inactive.
`CN(C)CC(=O)N1[C@H](C#N)[C@@H](c2ccc(-c3cccc(C(=O)N(C)C)c3)cc2)[C@H]1CO` gave AF4-AF9 inh 0.2 and FGF22 binding inactive.
Screening COc1ccc2c3c(n(C)c2c1)[C@@H](CO)N(C(=O)NC1CCCC1)CC31CCN(C)CC1 returned AF4-AF9 inh 6.7 and FGF22 binding inactive.
Screening OC[C@H]1[C@H](c2ccc(-c3ccccc3)cc2)[C@H]2CN(Cc3cncnc3)CCCCN21 returned AF4-AF9 inh -1.3 and FGF22 binding inactive.
Screening COc1ccc(S(=O)(=O)Nc2ccc3c(c2)C(=O)N([C@@H](C)CO)C[C@H](C)[C@@H](CN(C)Cc2ccc(C(=O)Nc4ccccc4N)cc2)O3)cc1 returned AF4-AF9 inh -9.3 and FGF22 binding inactive.
For CNC[C@@H]1Oc2ccc(NS(=O)(=O)c3ccc(Cl)cc3)cc2C(=O)N([C@@H](C)CO)C[C@H]1C the results were AF4-AF9 inh -5.1 and FGF22 binding inactive.
Screening O=C([C@H]1[C@H](CO)[C@H]2Cn3c(cccc3=O)[C@H]2N1C(=O)CC1CC1)N1CCc2ccccc2C1 returned AF4-AF9 inh -0.1 and FGF22 binding inactive.
`Cc1ccc(S(=O)(=O)N(C)C[C@@H]2Oc3cc(C#CC4CCCC4)ccc3S(=O)(=O)N([C@@H](C)CO)C[C@H]2C)cc1` gave AF4-AF9 inh 2.5 and FGF22 binding inactive.
`CO[C@H]1CN(C)C(=O)c2ccc(NC(C)=O)cc2OC[C@@H](C)N(C(=O)CC2CC2)C[C@@H]1C` gave AF4-AF9 inh 2.6 and FGF22 binding inactive.
For CC=Cc1ccc2n(c1=O)C[C@H]1[C@H](CO)[C@@H](C(=O)NCCc3cn(C)cn3)[C@@H]2N1C(=O)C1CC1 (mixture of isomers) the results were AF4-AF9 inh 0.3 and FGF22 binding inactive.
For COc1ccccc1-c1ccc([C@@H]2[C@H](C#N)N(C(=O)CN(C)C)[C@H]2CO)cc1 the results were AF4-AF9 inh -0.9 and FGF22 binding inactive.
`COc1cccc(S(=O)(=O)N2C[C@@H](O)COC[C@@H]3O[C@@H](CC(=O)N4CCN(C)CC4)CC[C@H]32)c1` gave AF4-AF9 inh 0.0 and FGF22 binding inactive.
COc1ccc(NC(=O)Nc2ccc3c(c2)CC(=O)N([C@@H](C)CO)C[C@H](C)[C@@H](CN(C)Cc2ccncc2)O3)cc1 was read as AF4-AF9 inh 1.3 and FGF22 binding inactive.
Screening O=C(C1CCOCC1)N1C[C@H]2[C@@H](c3ccccc31)[C@H](CO)N2C(=O)Nc1cccc(F)c1 returned AF4-AF9 inh -0.8 and FGF22 binding inactive.
Screening Cc1noc(C)c1NC(=O)N(C)C[C@H]1Oc2ccc(NC(=O)Nc3cccc4ccccc34)cc2C(=O)N([C@@H](C)CO)C[C@H]1C returned AF4-AF9 inh 6.4 and FGF22 binding inactive.
O=S(=O)(N[C@H]1CC[C@@H](CCn2cc(C3CC3)nn2)O[C@H]1CO)c1ccc(Cl)cc1 was read as AF4-AF9 inh -1.9 and FGF22 binding inactive.
CC(C)NC(=O)N(C)C[C@H]1Oc2c(NS(=O)(=O)c3ccccc3)cccc2C(=O)N([C@H](C)CO)C[C@H]1C was read as AF4-AF9 inh -0.1 and FGF22 binding inactive.
Screening C[C@H](CO)N1C[C@H](C)[C@H](CN(C)C(=O)Nc2ccc(N3CCCCC3)cc2)OCc2cnnn2CCCC1=O returned AF4-AF9 inh 14&12&1.8 and FGF22 binding inactive.
`CO[C@@H]1CN(C)C(=O)c2cc(NC(=O)Nc3ccccc3F)ccc2OC[C@@H](C)N(C)C[C@@H]1C` gave AF4-AF9 inh -1.9 and FGF22 binding inactive.
`C[C@H]1CN([C@@H](C)CO)C(=O)c2cccc(NC(=O)C3CCOCC3)c2O[C@@H]1CN(C)C(=O)Nc1cccc2ccccc12` gave AF4-AF9 inh -1.2 and FGF22 binding inactive.
